# Bioassay records from PubChem BioAssay.
# Mtb MbtI inh: MbtI salicylate synthase inhibitors, primary screen, biochemical, fluorescence intensity; 100,000 tested, 0.89% active; purified MbtI enzyme, fluorescence intensity read-out; inhibition, %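 (about 17 µg/mL by stock and volumes)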; AID 493033, 2011; P9WFX0;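 active means above 50% in both replicates, above 80% if mildly self-fluorescent; inactive means the rest, strongly fluorescent compounds included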;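 further: 0% = mean of negative and 100% = mean of positive controls; one replicate is shown; some compounds called inactive have numbers as strong as hits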
# Target sequence (P9WFX0 whole entry, looked up): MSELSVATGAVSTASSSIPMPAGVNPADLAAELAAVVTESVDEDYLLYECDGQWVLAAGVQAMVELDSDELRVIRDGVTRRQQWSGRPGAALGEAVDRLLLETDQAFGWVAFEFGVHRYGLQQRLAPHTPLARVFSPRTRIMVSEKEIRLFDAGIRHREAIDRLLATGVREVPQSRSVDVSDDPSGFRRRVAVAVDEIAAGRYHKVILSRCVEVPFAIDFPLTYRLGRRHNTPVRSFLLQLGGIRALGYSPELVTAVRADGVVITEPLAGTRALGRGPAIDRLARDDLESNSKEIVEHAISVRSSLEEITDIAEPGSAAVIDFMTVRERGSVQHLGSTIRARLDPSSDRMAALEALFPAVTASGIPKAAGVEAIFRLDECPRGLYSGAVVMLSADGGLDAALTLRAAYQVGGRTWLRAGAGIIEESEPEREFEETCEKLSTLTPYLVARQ
# MenB inh: M. tuberculosis MenB inhibitors, primary screen, biochemical, absorbance. 1,4-dihydroxy-2-naphthoyl-CoA synthase (Mycobacterium tuberculosis (strain ATCC 25618 / …. MenB enzyme assay, absorbance read-out; some hits fall short of the stated cut. inhibition, %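 (about 12 µg/mL by stock and volumes)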. 100,000 tested, 0.43% active;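 active means mean of two replicates above 30%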;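 further: 0% = no compound and 100% = wells with inactive enzyme; the first replicate is given; strong numbers were not always called active; inactives centre near -10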
# Polio RdRp inh: poliovirus RdRp elongation inhibitors, primary screen, biochemical, fluorescence polarization, total intensity; Genome polyprotein (Poliovirus type 1 (strain Mahoney)), P03300; poliovirus polymerase elongation; hits give low values; % elongation, % (compound at 16.7 µg/mL); 150,000 tested, 0.66% active; AID 588519, 2011; in the data active means % elongation below about 90%; further: some results filed as inactive read as strong as hits
# Target sequence (P03300 1749-2209 limits assumed): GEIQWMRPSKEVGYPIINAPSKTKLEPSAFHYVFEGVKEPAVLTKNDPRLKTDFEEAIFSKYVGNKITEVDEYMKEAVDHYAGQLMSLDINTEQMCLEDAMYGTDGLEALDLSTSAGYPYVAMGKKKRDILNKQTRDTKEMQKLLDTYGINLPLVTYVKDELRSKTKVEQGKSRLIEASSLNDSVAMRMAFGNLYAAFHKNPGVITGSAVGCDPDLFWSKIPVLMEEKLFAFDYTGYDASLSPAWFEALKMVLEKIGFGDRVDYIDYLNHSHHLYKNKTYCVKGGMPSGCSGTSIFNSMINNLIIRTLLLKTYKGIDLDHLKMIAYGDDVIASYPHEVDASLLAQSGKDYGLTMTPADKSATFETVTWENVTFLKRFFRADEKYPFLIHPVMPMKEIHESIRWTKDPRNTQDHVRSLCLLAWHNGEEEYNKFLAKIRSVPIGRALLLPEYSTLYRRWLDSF
# Polio RdRp inh intensity: recorded beside Polio RdRp inh, whose call it bears; % elongation; measured here: total intensity read-out; formula for this scale not given here;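 total fluorescence in place of polarization; lower means less elongation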
# Numbers without * were called inactive; nt = no result given.
SMILES,Mtb MbtI inh,MenB inh,Polio RdRp inh,Polio RdRp inh intensity
CCOC(=O)N1CCN(C(=O)c2cc(-c3ccc(F)cc3)n[nH]2)CC1,-13,-4,102,101
CCC(CC)NC(=O)CSc1nc(C)c(C)n1CC(C)C,10,-1,104,105
COc1ccc(C)cc1NC(=O)CN1CCSc2ccccc21,-2,-11,111,113
O=C(COC(=O)c1cccc(C(F)(F)F)c1)NCc1ccccc1,-15,nt,101,99
Cc1ccc(-c2nnc(-c3cc(C(=O)NN)c(C)nc3C)o2)cc1,-27,8,104,109
Nc1nnc(C2CCCC2)s1,-4,-24,104,102
CSc1ncc(F)c(N(CCO)CCO)n1,nt,-4,106,107
COc1ccc(CNC2CC2)cc1,-6,-8,104,88
CCOc1ccc2[nH]c(=O)c(Cc3ccccc3)c(O)c2c1,nt,-10,107,114
CC(Nc1ccccc1)c1ccncc1 (configuration not stated),-6,17,101,100
CN(C(=O)COC(=O)c1ccc(Cl)c(N)c1)C1CCCCC1,39,nt,102,107
COc1cccc(-n2c(C)c3c(C)nnc(C)c3c2C)c1,0,-19,100,100
Clc1ncccc1N=Cc1cccc(Br)c1,-3,nt,104,105
CCOC(=O)c1cn(CC)c2ccc(S(=O)(=O)N3CCc4ccccc4C3)cc2c1=O,-1,-29,103,107
CC12CCC(=O)N1C(C(=O)N1CCN(S(=O)(=O)c3ccc(F)cc3)CC1)CS2 (configuration not stated),0,-5,98,102
COc1ccccc1C(C)NCC(=O)Nc1ccccc1C#N (configuration not stated),-7,-25,104,107
Cc1cc(C(=O)N/N=C/c2[nH]ncc2Cl)no1,17,-4,100,98
N#Cc1nc(-c2ccccc2F)oc1N1CCN(c2ccccc2)CC1,-77,-40,100,103
CCOC(=O)c1cnn(-c2ccccc2)c1N(C(=O)c1ccccc1F)C(=O)c1ccccc1F,-5,-6,101,105
Cc1cnc(C)c(N2CCC(C(=O)NCC3CC3)CC2)n1,-8,12,102,102

# 4 of the compounds above, with each value named.
O=C(COC(=O)c1cccc(C(F)(F)F)c1)NCc1ccccc1
- Mtb MbtI inh: -15
- MenB inh: nt
- Polio RdRp inh: 101
- Polio RdRp inh intensity: 99

Cc1cnc(C)c(N2CCC(C(=O)NCC3CC3)CC2)n1
- Mtb MbtI inh: -8
- MenB inh: 12
- Polio RdRp inh: 102
- Polio RdRp inh intensity: 102

N#Cc1nc(-c2ccccc2F)oc1N1CCN(c2ccccc2)CC1
- Mtb MbtI inh: -77
- MenB inh: -40
- Polio RdRp inh: 100
- Polio RdRp inh intensity: 103

CCC(CC)NC(=O)CSc1nc(C)c(C)n1CC(C)C
- Mtb MbtI inh: 10
- MenB inh: -1
- Polio RdRp inh: 104
- Polio RdRp inh intensity: 105

# (listing goes on)
SMILES,Mtb MbtI inh,MenB inh,Polio RdRp inh,Polio RdRp inh intensity
CSc1nc(C)cc(-c2ccccc2)n1,-2,-10,100,97
O=C1C2ON(c3ccc(Cl)cc3)C(c3ccc(F)cc3)C2C(=O)N1Cc1ccccc1 (configuration not stated),-5,-1,99,103
Cc1ccc(CC(C#N)Sc2nc3ccccc3n2CCC#N)cc1 (configuration not stated),-4,-24,104,104
Cc1cc(C)cc(NC(=O)CN2C(=O)CCc3ccccc32)c1,-4,-16,101,108
Cc1cccc(OCCNCCO)c1C,-7,-13,103,104
O=C(Nc1ccc(F)c(F)c1)c1cnn(-c2ccccc2)n1,29,-43,90*,91*
C=CCSc1nc2c(c(-c3ccc(C)o3)c1C#N)CCCC2,13,-19,101,97
COC(=O)c1ccc(COc2ccc3ccccc3c2)o1,-196,-13,101,102
COc1ccc(C2=Nc3ccccc3SC(C(=O)O)C2)cc1 (configuration not stated),-6,0,103,110
C[n+]1cc(C(=O)NCCC[N+]2(C)CCCC2)ccc1/C=N/O,-2,2,99,100
O=C(NCc1ccc(Cl)cc1)c1ccc(CN2CCOCC2)cc1,-16,-27,104,101
CCOc1ccccc1C(=O)Nc1nncs1,33,-11,102,100
CN1CCN(C(=O)c2cc(C(C)(C)C)cc(C(C)(C)C)c2)CC1,nt,-23,100,103
CCOC(=O)c1c(N)n(-c2ccccc2)c2nc3ccccc3nc12,62,-32,106,100
CCOC(=O)C1CCN(c2c(C(=O)c3ccccc3)cnc3ccc(CC)cc23)CC1,-16,-15,102,103
O=C(NCc1n[nH]c(=S)n1-c1ccccc1)c1ccccc1,4,-25,103,107
CC(=O)Nc1ccc2nc(C)sc2c1,nt,-105,100,98
CCCNC(=O)c1ccc(CN2CCCn3nc(C)cc32)cc1,-25,-17,100,102
NS(=O)(=O)c1ccc(NNC(=O)CC2(CC(=O)O)CCCC2)cc1,2,6,100,104
CCOC(=O)c1sc(-c2ccc(C)cc2)cc1N,41,-32,102,104
Cc1ccnc(N(C(=O)Nc2ccc(Cl)cc2)C2=NCC(C)S2)c1 (configuration not stated),-1,-10,106,110
CN(Cc1ccccc1)C(=O)Cn1cnc(S(=O)(=O)N2CCCC2)c1,-14,-30,nt,nt
Cc1cc(C2N=C(N)Nc3nc4ccccc4n32)c(C)n1C1CC1 (configuration not stated),-6,0,104,103
CCNC(=S)N1CCc2cc(OC)c(OC)cc2C1COc1ccc2c(C)cc(=O)oc2c1 (configuration not stated),16,2,103,95
CCCCCC(=O)NC1CCN(C)CC1,-4,0,99,100
Cc1cccc(-c2ocnc2C(=O)Nc2ccc(N3CCN(S(C)(=O)=O)CC3)cc2)c1,0,15,102,102
CCNC1(c2cccc(Cl)c2)CCC1,nt,-7,108,113
COc1ccc2c(c1)CN(c1ccc(C)cc1C)CO2,-11,-16,101,102
CCOC(=O)c1cc(-c2ccccc2)n(CCC(=O)NCc2cccs2)c1C,-18,-17,101,101
CS(=O)(=O)Nc1cccc(C(=O)NCc2ccccc2)c1,-2,2,103,104
CC(=O)Nc1cccc(OCC(=O)N(C)c2ccccc2)c1,-4,-15,103,102
O=C(CSc1cccc[n+]1[O-])c1cc2ccccc2o1,98*,nt,99,101
Cc1cc(C)c(C)c(S(=O)O)c1C,3,-36,83*,85*
N#Cc1ccc(OCC(=O)N2CCOCC2)cc1,-11,-30,103,93
COc1ccc(CC(=O)OCC(=O)Nc2ccc(N3CCOCC3)cc2)cc1,-9,-10,nt,nt
Cc1cc(-c2ccccc2)nc(SCc2ccccc2)c1C#N,nt,-11,99,103
CCOc1ccccc1NC(=O)c1ccc(C)cc1,nt,-20,105,111
O=C(NC1CCCCC1)n1c(=O)oc2ccc(Cl)cc21,nt,1,104,102
c1ccc(NCCNc2ncnc3sccc23)nc1,-23,17,110,106
Cc1ccc(N2CC(NC(=O)NCc3ccccn3)CC2=O)cc1 (configuration not stated),-6,-27,99,105
O=C1CCC(C(=O)N2CCCC2c2nc3ccccc3s2)=NN1c1ccccc1 (configuration not stated),-5,-2,103,111
O=C1CCCC2=C1C(c1ccccn1)C1=C(CCCC1=O)N2,100,-61,101,107
S=C(Nc1cccnc1)Nc1cccnc1,6,-19,101,101
COc1ccc(Cn2cnc3c2c(=O)n(C)c(=O)n3C)cc1,-2,11,103,106
C/C(=N/O)c1nnc2cc(C)nn2c1C,-2,-25,101,102
Cc1cccc(OCc2nnc(SCC(=O)c3cc(C)n(-c4ccc5c(c4)OCO5)c3C)o2)c1,-2,-12,103,105
COC(=O)C(C#N)c1nc2ccccc2nc1Cl (configuration not stated),0,-24,83*,92*
CC1(C)CC(=O)c2cc(C(=O)N3CCCC(C)(C)C3)c(=O)n(-c3ccccc3)c2C1,-1,1,101,101
Oc1ccc(CN2CCN(c3cccc(C(F)(F)F)c3)CC2)cc1,-34,12,99,103
Cc1cc(N2CCOCC2)nc2ccc(NC(=S)NC3CC3)cc12,116,6,101,104
C=C1SC(Nc2c(CC)cccc2CC)=NC1(C)C,-5,-17,109,110
O=C(Nc1ccccc1)n1nnc(C2CN(Cc3ccccc3)CN(Cc3ccccc3)C2)n1,-11,13,105,111
C=CCN1C(C(=O)c2ccccc2)=C(OC(=O)c2ccccc2)c2ccccc2S1(=O)=O,-11,-40,102,108
CC1CN(Cn2nc(-c3cccs3)n(-c3ccccc3)c2=S)CC(C)O1 (configuration not stated),89,-15,104,101
Cc1ccc(S(C)(=O)=NC(=O)NC(=O)c2c(Cl)cccc2Cl)cc1 (configuration not stated),-4,1,108,110
CN1CCc2nc3ccccc3c(C(=O)OCC(=O)Nc3ccccc3C#N)c2C1,43,-21,103,101
CCS(=O)c1ccccc1C(=O)OCc1cc(=O)oc2cc(C)c(C)cc12 (configuration not stated),-3,-5,99,105
O=C(Cn1cnc2c(nnn2Cc2ccc(Cl)cc2)c1=O)NCC1CCCO1 (configuration not stated),2,-18,102,102
NC(=O)C1CCN(Cc2ccccc2)CC1,-14,-1,100,105
Cc1nn(C(C)(C)C)c(NC(=O)c2ccccc2)c1C#N,-12,-14,103,99

# Carrying on.
SMILES,Mtb MbtI inh,MenB inh,Polio RdRp inh,Polio RdRp inh intensity
CCC(Sc1nncn1C)C(=O)Nc1ccc(OC(F)(F)F)cc1 (configuration not stated),nt,8,103,93
S=C(Nc1ccc(N2CCOCC2)nc1)Nc1cc(Cl)ccc1Cl,-14,-24,118,127
COc1ccc(Br)cc1C1CC(=O)C(C)C(c2cc(Br)ccc2OC)N1 (configuration not stated),-1,-7,103,105
CCc1ccc(OC)c(S(=O)(=O)NC2CCCCC2)c1,-9,-8,102,103
CCC1CCCCN1C(=O)c1ccc(F)cc1 (configuration not stated),nt,-11,102,103
Cc1ccc(CC(C#N)Sc2nnc(-c3cccnc3)n2Cc2ccccc2)cc1 (configuration not stated),8,-7,102,98
NC(=O)CSCc1ccc(Br)cc1,-4,-17,100,103
CCn1c(C(=O)Nc2cc(C)ccc2C)cc2sc(Cl)cc21,0,-21,102,103
CC(=O)Nc1cc(NC(C)=O)[nH]n1,0,-15,101,103
CCOC(=O)C1CCCN(CC(=O)/C=C2/N(C)c3ccccc3C2(C)C)C1 (configuration not stated),-7,-10,113,118
CC(C)OC(=O)C1Cc2ccccc2CN1S(=O)(=O)c1cccs1 (configuration not stated),-6,-16,104,101
Cn1nc(C(F)(F)F)c2cc(-c3nc(-c4ccc(C(F)(F)F)cc4)no3)sc21,3,0,102,104
COc1cc(CN2CCCC(O)C2)cc(OC)c1OC (configuration not stated),-17,20,100,104
O=C(CC1SCC(C(=O)O)NC1=O)NCc1ccccc1 (configuration not stated),5,-41,103,100
COC(=O)c1c(O)c2c([nH]c1=O)CCCC2,3,-21,102,100
Nc1[nH]nc2nc(-c3ccccc3)c3c(c12)CCC3,5,3,100,101
COc1ccccc1Nc1c2c(nc3ccc(NC(=O)COc4cccc(C)c4)cc13)CCCC2,2,-14,99,97
CN1C(=O)C(C(=O)NC(C)(C)C)C2CC1(C)Oc1ccccc12 (configuration not stated),4,-24,101,104
c1ccc(Nc2ncnc3c2oc2ccccc23)cc1,77,4,97,103
COCc1[nH]nc2c1C1(CCC(C(C)(C)C)CC1)C(C#N)=C(N)O2 (configuration not stated),-4,-14,102,102
COc1ccccc1OCC(=O)NCCC1=CCCCC1,nt,4,108,100
O=C(CC(=O)c1ccccc1O)c1ccccc1,nt,6,112,102
CN1/C(=C(/C#N)C(=O)CSc2nc(C3CC3)n(-c3ccccc3)n2)Sc2ccccc21,-7,2,119,130
CN(C)NC(=S)Nc1ccc(S(=O)(=O)N2CCCCC2)cc1,-16,16,103,103
Cc1cc(N2CCOCC2)c2c(N)c(C)cc(C)c2n1,-3,nt,101,103
CC1CC(C)CN(C(=O)Cn2c(=O)n(CCCC(=O)NCc3ccco3)c(=O)c3sccc32)C1 (configuration not stated),-10,-9,102,106
Cc1ccc(N=Cc2c(O)[nH]c(=S)[nH]c2=O)cc1,4,-25,97,104
BrCCOC1OCCOC1OCCBr (configuration not stated),-9,nt,98,98
O=C(CSc1nc2c(c(=O)n1-c1ccc(Cl)cc1)SCC2)Nc1nccs1,-2,-12,101,101
Cc1onc(-c2ccccc2)c1C(=O)OCC(=O)c1ccc2c(c1)OCCO2,0,-17,101,108
COc1ccc(/C=C/C(=O)/C=C/c2ccc(OC)cc2)cc1,nt,-56,100,101
N#C/C(=C/c1cn(CC(=O)O)c2ccccc12)c1ccc(F)cc1,14,-75,99,104
COC(=O)NC(=Nc1ccc(OC)cc1)C(F)(F)F,-16,nt,103,97
CCCCc1nc2c(c(=O)[nH]1)C(C)(C)Cc1ccccc1-2,-27,-3,102,104
COC(=O)C1=C(N)Oc2cc(C)[nH]c(=O)c2C12C(=O)N(CC(C)C)c1ccccc12 (configuration not stated),-12,-41,104,107
COc1cccc(CCC(=O)O)c1OC,-14,-11,105,104
CN1CCN(C(=S)c2cn(Cc3ccc(F)cc3)c3ccccc23)CC1,-1,-43,105,104
Cc1ccc2nc3n(c(=O)c2c1)CC(O)=C3C#N,-8,-35,101,108
CC1(C)N=C(c2ccccc2)C(=S)N1,3,-20,101,107
COc1ccc(-n2c(C)nc(=O)c(-c3ccccc3)c2C)cc1,-2,20,104,103
O=C(Cc1noc2ccccc12)Nc1ccc(Cl)cc1,-16,0,101,100

# A portion taken from the entries so far, for reference:
SMILES,Mtb MbtI inh,MenB inh,Polio RdRp inh,Polio RdRp inh intensity
COc1ccc(-n2c(C)nc(=O)c(-c3ccccc3)c2C)cc1,-2,20,104,103
O=C(Cc1noc2ccccc12)Nc1ccc(Cl)cc1,-16,0,101,100
